From PubChem BioAssay
Biofilm kill mix = clotrimazole potentiators killing C. albicans biofilm, primary screen, 4-compound mixtures; inhibition, % at 7.6 µM; 0.02% of 120,000 active; AID 1242, 2008; C. albicans biofilm persisters + clotrimazole, fluorescence viability; primary screen in compound mixtures of four per well;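 active means inhibition above 30.3% in the primary screen of four-compound pools, then above 30% when the compound was retested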;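 further: compounds exposed to preformed 24 h biofilms for 48 h; the number belongs to the whole pool; some results filed as inactive read as strong as hits; inactives centre near 12; 0% = biofilm with clotrimazole alone and 100% = kill control; retested singly at about 60 µM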
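Incubation: 24 h biofilm formation, then 48 h compound exposure, 37 °C | Material: C. albicans biofilms | Buffer or medium: RPMI/MOPS medium, pH 7.0 | Measured by: 2-h Alamar Blue fluorescence, 535/590 nm excitation/emission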
* marks the source's active call; other numbers are inactive results. These rows are one share of the data, so the mix of outcomes need not match the whole.

canonical_smiles | Biofilm kill mix
CC1Cc2ccccc2N1C(=O)CSc1nnc(-c2ccc(S(=O)(=O)N3CCCC3)cc2)n1C (stereo unspecified) | 16
CCC(C)c1ccc(NC(=S)NC(C)C2CCCO2)cc1 (stereo unspecified) | 1
CCN(CC)S(=O)(=O)c1cccc(-c2n[nH]c(=S)n2/N=C/c2ccc(OC(F)F)cc2)c1 | 18
COc1cc2ccnc(Cc3cccc(OC)c3OC)c2cc1OC | 24
CC(C)(C)NC(=O)C(c1ccc(F)cc1)N(Cc1cccs1)C(=O)c1ccc(CN2CCOCC2)o1 (stereo unspecified) | 16
O=C(N/N=C/c1ccc(-c2ccc(Cl)c(C(=O)O)c2)o1)c1cc2c(ccc3ccccc32)o1 | 7
COc1cccc(CNc2cnc3ccccc3c2)c1O | 6
CCOC(=O)N/N=C/c1ccc(F)cc1F | 16
Cc1[nH]nc2c1C(c1cc(Br)cs1)C(C#N)=C(N)O2 (stereo unspecified) | 7
Cc1nn(C(C)C(=O)NC2C(=O)N3C(C(=O)O)=C(CSc4nnnn4C)CSC23)cc1Cl (stereo unspecified) | 16
CCOC(=O)c1cccc(S(=O)(=O)N2CCOCC2)c1 | 6
O=C1NN(c2ccc(F)cc2)C(=O)/C1=C\c1cnn(-c2ccccc2)c1 | 10
Cc1ccc(OCCOCCN2CCCCC2)c([N+](=O)[O-])c1 | 0
Nc1ncc(-n2cncn2)c(-c2ccccc2)n1 | 11
CCOc1ccc(NC(=S)NCCCn2ccnc2)cc1 | -8
O=C(O)CCN1C(=O)/C(=C\c2cccc(OCC(=O)Nc3ccc(Cl)cc3)c2)SC1=S | 20
NS(=O)(=O)c1ccc(-n2cccc2C=O)cc1 | 1
CCOc1ccc(NC(=O)CSc2nnc(Cn3cnc([N+](=O)[O-])n3)n2CC)cc1 | 31
O=C(O)/C=C\c1ccccc1Oc1cccc(Cl)c1 | -2
CN(Cc1ccccn1)C(=O)CC1C(=O)NCCN1Cc1cccc(Oc2ccccc2)c1 (stereo unspecified) | 8
Nc1cc(-c2nc3ncccc3o2)ccc1Cl | 15
CCOc1ccc(NS(=O)(=O)c2cc(C)c(C)cc2C)cc1 | 14
Cc1ccc(-c2c[n+](CC(=O)Nc3ccccc3C)c3n2CCC3)cc1 | 14
Cc1cccc(N2CCN(Cc3nc(C4CC4)no3)CC2)n1 | 30
Cc1ccc(C(=O)Cn2nc(C)c([N+](=O)[O-])c2C)c(C)c1 | 7
Cc1ccc(OCC(=O)NCCO)c(Br)c1 | 9
Cc1cc(C)n(/N=C/c2ccco2)c(=O)c1C#N | 9
CC12CN(C(=S)Nc3ccccc3)CC(C)(CN(C(=S)Nc3ccccc3)C1)C2=O | 13
CCOC(=O)CSc1nnc(Cn2nnc3ccccc32)n1-c1ccc(F)cc1 | 6
O=C(Nc1ccc(Cl)cn1)c1ccc([N+](=O)[O-])o1 | -5
Cc1ccc(S(=O)(=O)N(C)C)cc1NC(=O)Nc1ccccc1 | 22
COC(=O)C(=C/C(C)=C/c1cccnc1)C(=O)OC | 5
CCOC(=O)N1N=C(c2ccc(OC)cc2)CC1(O)C(F)(F)F (stereo unspecified) | 10
Cc1cc(N2CCCC2)ccc1/C=C1\NC(=S)N(C)C1=O | 13
Cc1ccc(CSC2=Nc3ccccc3C3=NC(=O)CN23)cc1 | 2
COc1cc(/C=N/NC(=O)c2cc(-c3ccc4c(c3)OCO4)n[nH]2)ccc1O | 9
COc1ccc(Cl)cc1NC(=S)NCCO | 8
OCC1(Cc2ccc(Cl)cc2)CCN(Cc2ccc3nsnc3c2)CC1 | 12
Cc1nc(N)sc1N=Nc1c(C)n(C)n(-c2ccccc2)c1=O | 20
CC(/C=N/Nc1nc(C)cc(=O)[nH]1)=C\c1ccccc1 | 12
Cc1ccc(C(=O)NC(c2ccccc2)C(Cl)Cl)cc1 (stereo unspecified) | 7
CC(=O)Oc1ccc(N(c2ccccc2)S(=O)(=O)c2ccc(C)cc2)cc1 | -12
CNC(=S)N(Cc1ccc(OC)cc1)Cc1cc2cccc(C)c2[nH]c1=O | -3
COC(=O)Cc1ccc(NC(=S)N2CCN(c3ccc(F)cc3)CC2)cc1 | 12
Cc1cc(N2CCOCC2)nc2ccc(NC(=S)N3CCN(Cc4ccccc4)CC3)cc12 | 2
CC(C)CCc1c(O)nc(SCC(C)C)[nH]c1=O | 13
CCC1=Nc2cc(C(=O)NCc3ccco3)ccc2Sc2ccc(C)cc21 | 6
C=CCn1c(SCC(=O)c2ccc(Cl)cc2)nnc1-c1ccc2c(c1)OCO2 | 10
COc1ccc(C(=O)N/N=C/c2ccc(OC)c(CN3CCc4cc(OC)c(OC)cc4C3C)c2)cc1 (stereo unspecified) | 11
Cc1ccc(OCCCCn2ccnc2)c([N+](=O)[O-])c1 | 6

Brought forward from above: 3 entries; new compounds follow.
canonical_smiles | Biofilm kill mix
C=CCn1c(SCC(=O)c2ccc(Cl)cc2)nnc1-c1ccc2c(c1)OCO2 | 10
COc1ccc(C(=O)N/N=C/c2ccc(OC)c(CN3CCc4cc(OC)c(OC)cc4C3C)c2)cc1 (stereo unspecified) | 11
Cc1ccc(OCCCCn2ccnc2)c([N+](=O)[O-])c1 | 6
COc1cccc(OC)c1C(=O)Nc1cc(C)nn1-c1nc2ccccc2[nH]1 | 4
COc1cccc(N2CC(O)=C(c3nc4ccccc4s3)C2=N)c1 | 14
O=c1cc(CSCc2ccc(Cl)cc2)[nH]c(=O)[nH]1 | 12
CN(/N=C/Cc1nnnn1-c1ccc(Cl)cc1)c1ccccc1 | 12
COc1ccc(C(c2c(C)[nH]n(-c3ccccc3)c2=O)c2c(C)[nH]n(-c3ccccc3)c2=O)cc1OC | 11
COc1ccc(-c2nnn(CC(=O)N(CCCO)C(C(=O)NC3CCCC3)c3ccncc3)n2)cc1 (stereo unspecified) | 14
O=C(CC(NC(=O)OCc1ccccc1)C(=O)O)OCc1ccccc1 (stereo unspecified) | 3
COc1ccc(-c2ccc(SCc3cccnc3)nn2)cc1OC | 8
O=C1CC(/C=C/c2ccncc2)=Nc2ccccc2N1 | 13
O=C(Nc1ccc2cn[nH]c2c1)c1ccc(Cl)c(S(=O)(=O)N2CCOCC2)c1 | 21
CCCCc1ccc(NC(=O)c2ccc(N(C)S(C)(=O)=O)cc2)cc1 | 12
c1ccc2c(-c3nnc4n3CCCCC4)cc(-c3ccncc3)nc2c1 | 11
Cc1cc(C)c(C#N)c(Sc2ccc(N)cc2)n1 | 9
O=C(c1ccc(S(=O)(=O)c2ccccc2Cl)c([N+](=O)[O-])c1)N1CCN(Cc2ccccc2)CC1 | 8
Cc1ccc(-c2ccc(/C=C3/NC(=O)NC3=O)o2)cc1[N+](=O)[O-] | 22
O=C(Nc1cccc(Cl)c1)Nc1cccc(C(=O)O)c1 | 5
NC(=O)Nc1n[nH]c(-c2ccccc2)n1 | 10
N#C/C(=C/c1ccc(N2CCOCC2)o1)C(=O)NC1CCCCC1 | 20
CCN(CC)CCN(CC(=O)N(C1CCCCC1)C1CCCCC1)C(=O)c1cccnc1 | 14
CCOc1cc(/C=C(/C#N)c2ccc(Cl)cc2)cc(Cl)c1OCC(=O)O | 14
COc1ccc(CCNC(=O)c2ccc(CN3CCC(Cc4ccccc4)CC3)cc2)cc1OC | -9
CC(C)NS(=O)(=O)c1ccc(NC(=O)Cc2cccs2)cc1 | 5
CCN(CC)C(=O)CC(c1ccc(F)cc1)c1ccc(OC(C)C)cc1 (stereo unspecified) | 17
[NH-]c1ncnc2c1N=C[N+]2=CC=CCO | 20
CCSc1nnc(NC(=O)CSc2nc3c(c(=O)n2CCOC)SC(C)C3)s1 (stereo unspecified) | 6
CCOc1ccccc1NC(=O)NCc1ccccc1F | 17
O=C(Nc1ccccc1)/C(=C/c1ccccc1)NC(=O)c1ccco1 | 15
O=[N+]([O-])c1cc(CN2CCN(c3cccc(C(F)(F)F)c3)CC2)c2cccnc2c1O | 16
O=C(Nc1ccccc1)OC1CCC2CC1CCC2OC(=O)Nc1ccccc1 (stereo unspecified) | -2
Cc1cc(C)c(S(=O)(=O)N2CCCOC2CNC(=O)C(=O)NCc2cccnc2)c(C)c1 (stereo unspecified) | 7
O=C(C1CCCCC1)N1CCN(c2ccnc3cc(Cl)ccc23)CC1 | 12
NS(=O)(=O)c1ccc(CCN=C(NS(=O)(=O)c2cccs2)c2ccccc2)cc1 | 10
Cn1c(=O)c2c(nc(CN3CCc4ccccc4C3)n2Cc2ccccc2)n(C)c1=O | 8
CSc1ncnc2c1cnn2-c1ccc(C)cc1C | 7
CC1CC(C)CN(C(=O)C(NS(=O)(=O)c2ccc(Br)s2)c2ccccc2)C1 (stereo unspecified) | 12
C/C(=N\NC(=O)c1ccc(Cl)c(Cl)c1)c1ccc(Br)s1 | 15
O=C(Nc1ccccc1)Nc1cccc(C(F)(F)F)c1 | 10
COc1ccc(COCC(CC(C)C)N2CCN(C(=O)c3cccc(C(F)(F)F)c3)CCC2=O)cc1 (stereo unspecified) | 6
COc1ccccc1C(=O)N=c1sc2c(C)ccc(OC)c2n1C | 27
Cc1ccc(NC(=O)c2ccc(Cl)cc2Cl)cc1O | 25
COc1cccc(CN2CCN(C(=O)Nc3ccc([N+](=O)[O-])cc3)CC2)c1 | 2
COc1ccc(NC(=O)CC2S/C(=N\c3nccs3)N(C)C2=O)cc1 (stereo unspecified) | 2
COC(=O)c1sccc1N/C=C(\C#N)S(=O)(=O)C(C)(C)C | 26
COc1ccc(NS(=O)(=O)c2cc(Cl)ccc2Cl)cc1S(=O)(=O)N1CCCCC1 | 7
CN(C)c1cncc(C(=O)O)c1 | 25
COc1cccc(CNC(=O)C(c2ccc(Cl)cc2)C(C)C)c1 (stereo unspecified) | 13
Fc1cccc(F)c1/C=N/N1CCOCC1 | 8
N#C/C(=C\N1CCOCC1)S(=O)(=O)c1ccc(Cl)cc1 | 15
O=C1N=C(N2CCCC2)CN1c1ccccc1 | -4
COC(=O)/C(=C\C(=O)c1ccc([N+](=O)[O-])cc1)Nc1ccc(OC)cc1 | 8

The listing continues:
canonical_smiles | Biofilm kill mix
COc1ccc(N2C(=S)N=C(Nc3cccc(C)c3)C23CCCCC3)cc1 | 10
COc1ccc(-c2cc(=O)c3cc(OC)ccc3o2)cc1 | 23
CS(=O)(=O)c1ccc2nc(NC(=O)Nc3ccc(Cl)c(Cl)c3)sc2c1 | 10
CC1CC(=O)N(c2ccc(NCc3ccc(Cl)cc3)c([N+](=O)[O-])c2)C1=O (stereo unspecified) | 13
CN(Cc1ccccc1)c1ccc(C(=O)O)cc1[N+](=O)[O-] | -8
COc1ccc(NC(=O)CCNS(=O)(=O)c2cccc3nsnc23)cc1 | 9
O=C(O)c1ccccc1/C=N/Nc1ccc(S(=O)(=O)N2CCOCC2)cc1[N+](=O)[O-] | 4
COc1ccccc1CNC(=O)c1nnc(Cc2ccc(Cl)cc2)o1 | 10
CCN1C2OC3OC4C(OC3OC2N(CC)S1(=O)=O)N(CC)S(=O)(=O)N4CC (stereo unspecified) | 8
COCCCNC(=O)CSc1nc2cc3c(cc2c(=O)n1CCCC(=O)NCc1ccc(OC)cc1)OCO3 | 23
CN(CC(=O)Nc1ccc(N2CCOCC2)cc1)CC(=O)Nc1ccc(Cl)cc1[N+](=O)[O-] | 5
O=C(O)COCC(=O)Nc1cc(C(F)(F)F)cc(C(F)(F)F)c1 | 8
Nc1c(C(=O)NCCc2ccccc2)nnn1Cc1ccc(Br)cc1F | 15
CCC(=O)N1C(Cc2ccccc2)COC1(C)C (stereo unspecified) | 1
S=C(NCCc1ccccn1)Nc1cc(Cl)cc(Cl)c1 | 24
O=S1(=O)CC2NC(=S)N(c3cccc(Br)c3)C2C1 (stereo unspecified) | 12
O=C(NC(c1ccccc1)c1ccccc1)c1cccc(S(=O)(=O)NCc2ccccc2)c1 | 3
CC(=O)Oc1cc2c(C(=O)NCc3ccncc3)c(C)oc2c2ccccc12 | 11
COc1ccc(CNC(=S)N/N=C(\C)c2ccc(OC)cc2)cc1 | 28
COC(=O)Cc1ccc(OCc2ccc(Cl)nc2)cc1 | 13
Cc1ccc(NS(=O)(=O)c2cccc(C(=O)O)c2)cc1S(=O)(=O)N1CCOCC1 | -9
O=C(Cc1ccc(-c2ccccc2)cc1)NCc1ccccc1 | -1
COC(=O)c1c(NC(=O)CSc2ccccc2N)sc(C)c1C | 20
CCOC(=O)C(=O)N1CCC(C(=O)OCC)CC1 | 11
Cc1nc2ccccc2n1C1CCN(CC(=O)Nc2ccccc2Br)CC1 | -1

Gathered by group: those above with a tert-butyl group (two)
canonical_smiles | Biofilm kill mix
CC(C)(C)NC(=O)C(c1ccc(F)cc1)N(Cc1cccs1)C(=O)c1ccc(CN2CCOCC2)o1 (stereo unspecified) | 16
COC(=O)c1sccc1N/C=C(\C#N)S(=O)(=O)C(C)(C)C | 26

Further results.
canonical_smiles | Biofilm kill mix
Cc1ccc(/C=N/n2c(C)cc(C)c(C#N)c2=O)cc1 | 9
CC1(C)CC(=O)C/C(=N/NC(=O)COc2ccc(Cl)cc2Cl)C1 | 29
COc1ccc(CSCC(=O)Nc2ccc(S(=O)(=O)N3CCCCCC3)cc2)cc1 | 11
O=c1[nH][nH]c2ccccc2c1=O | 7
O=C(NCc1ccc(F)cc1)C(=O)Nc1nc(C23CC4CC(CC(C4)C2)C3)cs1 | 4
C(=N\N(Cc1ccccc1)c1ccccc1)/c1cccnc1 | 27
Cc1cc(-c2ccccc2C(=O)NC2CCCCC2)on1 | 11
